From PubChem BioAssay
Lassa entry inh: inhibitors of Lassa virus binding or cell entry; Lassa virus pseudotype entry inhibition, cell reporter; control for the full effect not named in the record; Potency, µM (top dose mostly 37.9 µM), for the others: at the highest dose activity change, negative = inhibition, actives largely listed as inhibitors; actives 1.2% (n = 300,000); AID 540256; active means well fitted inhibition curve with a large enough effect; inconclusive means small, poorly fitted or top-dose-only effect, or effect the other way; inactive means flat fitted curve, though single readings scatter; tested in HEK293 cells; further: on the % scale 0 is the no-effect control and ±100 the full control effect; nearly all actives have a fitted effect of over 50% in size; luciferase read-out
SARS PLpro yeast: inhibitors of SARS-CoV papain-like protease in yeast. S. cerevisiae expressing SARS-CoV PLpro, growth rescue; control for the full effect not named in the record. actives 0.19% (n = 330,000). Potency, µM (series often up to 32.9 µM), without a hit: at the top dose activity, positive = growth rescue; active means well fitted rising curve with a large enough effect; inconclusive means small, poorly fitted or top-dose-only effect; inactive means no such curve, though single readings can be large or run the other way; further: 0% is about no effect; nearly all actives have a fitted effect of over 55% in size; growth read by luminescence after 48 h
Cruzain noTriton: cruzain (T. cruzi) inhibition without detergent. purified cruzain, Z-FR-AMC fluorescence, no detergent. Potency, µM, for the others: max response, negative = inhibition, hits mostly inhibitors. actives 2.3% (n = 200,000);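 further: plate controls were enzyme without inhibitor for no effect and buffer without enzyme for full effect; nearly all actives have a fitted effect of over 40% in size; top concentration of the series not given in the record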
Target sequence (P25779 123-467 limits assumed): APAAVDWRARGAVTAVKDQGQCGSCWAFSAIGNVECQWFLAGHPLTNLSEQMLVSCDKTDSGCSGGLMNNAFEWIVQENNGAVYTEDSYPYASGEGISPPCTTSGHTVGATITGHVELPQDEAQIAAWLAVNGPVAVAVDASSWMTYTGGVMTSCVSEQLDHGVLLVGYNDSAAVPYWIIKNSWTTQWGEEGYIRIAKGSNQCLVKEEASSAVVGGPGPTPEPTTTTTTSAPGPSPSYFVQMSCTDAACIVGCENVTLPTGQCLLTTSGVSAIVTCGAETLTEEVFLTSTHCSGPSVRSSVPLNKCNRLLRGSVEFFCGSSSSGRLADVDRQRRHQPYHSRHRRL
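Detergent-free condition (0.00005% Triton X-100) in acetate buffer pH 5.5 with DTT. 1.5 nM enzyme and compound were pre-mixed 15 min, then 2 uM Z-FR-AMC substrate added; reaction progress from fluorescence change between first and third reads (60 s).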
StopGo reporter: lowers the luciferase signal of an FMDV 2A StopGo reporter | human cells with a luciferase reporter of 2A StopGo recoding; control for the full effect not named in the record | Potency, µM (top dose mostly 57.9 µM), for inactives: top-dose signal change, negative = less light | actives 1.2% (n = 410,000) | AID 1159524; active = well fitted falling curve with a large enough effect; inconclusive = small, poorly fitted or top-dose-only effect; inactive = no such curve, though single readings can be large or run the other way; tested in HEK293T cells; further: on the % scale 0 is the no-effect control and ±100 the full control effect; nearly all actives have a fitted effect of over 45% in size; luciferase light after 4 h
RE007 growth inh: less growth of the S. pombe RE007 Vpr strain. S. pombe RE007 Vpr strain, BacTiter-Glo ATP luminescence, 24 h; control for the full effect not named in the record. Potency, µM (top dose mostly 92.2 µM), for the others: top-dose activity change, negative = less growth. actives 0.21% (n = 360,000). AID 651644; active = well fitted falling curve with a large enough effect; inconclusive = small, poorly fitted or top-dose-only effect; inactive = no such curve, though single readings can be large or run the other way;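 further: on the % scale 0 is the no-effect control and ±100 the full control effect; nearly all actives have a fitted effect of over 50% in size; the assay follows cell death caused by Vpr and the record does not say whether a fall means rescue or toxicity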
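Fission yeast strain RE007, carrying one chromosomally integrated HIV-1 vpr copy, was seeded at OD 0.01 in PMG+AL medium with 23 nL pinned compound. After 24 h at 30 °C and 99% humidity, viability was read by BacTiter-Glo luminescence.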
NS1 function inh: influenza NS1 inhibition; S. cerevisiae slowed by influenza A NS1, growth recovery by OD600; Potency, µM (top dose mostly 46.1 µM), without a hit: at the top dose activity, positive = more growth; actives 0.4% (n = 270,000); AID 2326; active means well fitted rising curve with a large enough effect; inconclusive means small, poorly fitted or top-dose-only effect; inactive means no such curve, though single readings can be large or run the other way; further: nearly all actives have a fitted effect of over 50% in size
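Growth recovery, yeast-based: influenza A NS1 expressed in S. cerevisiae causes slow growth, and suppressors are detected by OD600. The parent strain without NS1 is used as positive control.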
Cruzain Triton: blocks cruzain activity in presence of Triton detergent. P25779. AID 1478. purified cruzain, Z-FR-AMC fluorescence, 0.01% Triton. actives 0.43% (n = 200,000). Potency, µM, for inactives: max response, negative = inhibition, most hits filed as inhibitors;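 further: plate controls were neutral wells for no effect and buffer without enzyme for full effect; nearly all actives have a fitted effect of over 40% in size; top concentration of the series not given in the record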
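Enzyme 1.5 nM, Z-FR-AMC 2 uM, NaOAc 100 mM pH 5.5, DTT 5 mM, Triton X-100 0.01%; 15 min RT compound preincubation; kinetic ex360/em450, 60 s delta.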
Marburg entry inh: Marburg virus entry inhibition. Potency, µM (top dose mostly 37.8 µM), inactives show at the top dose activity change, negative = inhibition, hits mostly inhibitors. AID 540276. Marburg virus pseudotyped entry inhibition, cell reporter; control for the full effect not named in the record; about a third of the inactives were read at about 46 µM. actives 1.8% (n = 300,000); active = well fitted inhibition curve with a large enough effect; inconclusive = small, poorly fitted or top-dose-only effect, or effect the other way; inactive = flat fitted curve, though single readings scatter; tested in HEK293 cells; about a fifth of its hits are not listed in these tables; further: on the % scale 0 is the no-effect control and ±100 the full control effect; luciferase read-out
Active calls of the source: *; ? = inconclusive; / = not tested or not shown; [ ] = dose if it differs, or a comment. Unless noted, the call rests on the fitted dose curve; in most records, active means well fitted curve in the direction sought with a large enough effect; inconclusive means small, poorly fitted or top-dose-only effect, or another doubt; inactive means no such curve, though single readings can be large; an effect the other way counts as inactive or inconclusive. Potency means the concentration at half of the fitted maximal effect.

SMILES	Lassa entry inh	SARS PLpro yeast	Cruzain noTriton	StopGo reporter	RE007 growth inh	NS1 function inh	Cruzain Triton	Marburg entry inh
CCNc1nc(NC(C)C)nc(Oc2ccc(OCc3ccccc3)nn2)n1	-23%	2%	5%	-11%	?	4%	-4.0%	-22%[46.1 µM]
O=C(Nc1c2c(nn1-c1ccc(Cl)cc1)CS(=O)(=O)C2)c1cccc(Cl)c1	?	/	-25%	?	/	/	1.7%	/
COc1ccc(C(=O)CSc2nc(-c3ccccn3)nc(C)c2Cl)cc1	?	5%	/	?	34%	-39%	/	?
O=C(CS(=O)(=O)Cc1ccccc1)Nc1ccccn1	-5%	3%	-1%	13%	8%	-12%	0.2%	15%
Cc1ccc(NS(=O)(=O)c2ccc(NC(=O)CN(c3cc([N+](=O)[O-])ccc3C)S(C)(=O)=O)cc2)c(C)c1	?	12%	-24%	?	17%	?	-5.8%	?
CCc1cccc2c(C(=S)N3CCOCC3)c[nH]c12	-10%[46.1 µM]	0%	/	4%	11%	5%	/	?
COc1ccc(-c2nc(S(=O)(=O)c3ccc(Cl)cc3)c(NCc3ccccc3)o2)cc1	?	/	11%	19%	/	/	5.0%	0%[46.1 µM]
Fc1ccc(-c2nn(-c3ccc(Cl)cc3)c3c2cnc2ccc(F)cc23)cc1	3%[46.1 µM]	/	1%	-11%	/	/	0.9%	/
CCOc1ccc(CC(=O)NCCc2sc(-c3cccc(F)c3)nc2C)cc1	-11%[46.1 µM]	/	?	?	/	/	-7.1%	/
Cc1ccccc1OCC(=O)Nc1c2c(nn1C(C)(C)C)CS(=O)(=O)C2	?	13%	/	-24%	2%	1%	/	-3%
CCN(CC)S(=O)(=O)c1cc(C(=O)NCCN2CCOCC2)ccc1Cl	1%[46.1 µM]	2%	/	1%	-1%	/	/	-28%[46.1 µM]
c1ccc(CCNc2nc(-c3ccncc3)cs2)cc1	-18%	-4%	/	-12%	-2%	/	/	-14%
COc1cc(C=O)ccc1OS(=O)(=O)c1ccccc1[N+](=O)[O-]	0%	-25%	-2%	0%	-2%	-30%	-2.4%	9%[46.1 µM]
CCc1ccc(-n2nc(C)c3c(C)cc(=O)n(CC(=O)Nc4cc(C)ccc4C)c32)cc1	3%[46.1 µM]	/	1%	4%	/	/	1.7%	/
CCCCNC(=O)CN1C(=O)CN=C(c2ccccc2)c2ccccc21	/	-3%	/	12%	-1%	-4%	/	/

An excerpt from above with just StopGo reporter:
mol | StopGo reporter
COc1ccc(C(=O)CSc2nc(-c3ccccn3)nc(C)c2Cl)cc1 | ?
O=C(CS(=O)(=O)Cc1ccccc1)Nc1ccccn1 | 13%
Cc1ccc(NS(=O)(=O)c2ccc(NC(=O)CN(c3cc([N+](=O)[O-])ccc3C)S(C)(=O)=O)cc2)c(C)c1 | ?

Later entries:
SMILES	Lassa entry inh	SARS PLpro yeast	Cruzain noTriton	StopGo reporter	RE007 growth inh	NS1 function inh	Cruzain Triton	Marburg entry inh
CC(C)(C)c1ccc(C(=O)NNc2cc(N3CCCCC3)nc(N3CCCCC3)n2)cc1	-15%	-3%	?	-15%	0%	5%	-9.8%	?
CC(C)Sc1cc(N2CCCC2)nc(-c2ccccc2)n1	15%	-11%	4%	-3%	-1%	-14%	-2.9%	-2%
CC1CCC(N2CC(=O)N(C3CCCCC3)C(c3ccc(F)cc3)C2=O)CC1 (stereo not given)	25%[46.1 µM]	/	3%	?	/	/	-0.2%	/
O=C(COC(=O)c1ccc([N+](=O)[O-])o1)Nc1nc2ccccc2s1	17%	-5%	/	16%	-18%	-29%	/	6%[46.1 µM]
Cc1cc(/C=N/NC(=O)C(=O)NCc2ccccn2)c(C)n1-c1ccccc1	?	14%	0%	32%[activator]	-1%	2%	-3.8%	4%
Cc1c(C(c2ccc(N(C)C)cc2)c2c(C)n(C)n(-c3ccccc3)c2=O)c(=O)n(-c2ccccc2)n1C	5%	-5%	/	-10%	-20%	/	/	-6%
COc1ccc(CCN2Cc3c(N)cccc3C2=O)cc1OC	-1%	3%	/	6%	-2%	2%	/	-2%
O=C(Nc1ccc2c(c1)CCCN2C(=O)c1cccs1)c1cccc(F)c1	?	-37%	/	3%	-2%	-22%	/	?
CCCCN(C)Cc1c(O)ccc2c(=O)c(-c3ccccc3OC)coc12	/	-1%	/	3%	8%	12%	/	/
CCCc1cc(=O)[nH]c(SCC(=O)Nc2sc3c(c2C(N)=O)CCCC3)n1	-2%	2%	/	3%	11%	/	/	13%
S=c1[nH]nc(-c2ccccn2)n1/N=C/c1cccs1	8%	4%	-4%	-11%	3%	24%	-2.2%	0%
Cc1ccc(CNC(=O)c2ccc(N3CCC4(CC3)CC(c3ccccc3)=NO4)c(N)c2)cc1	/	-3%	/	-10%	2%	20%	/	/
COc1cc(OC)cc(C(=O)N[C@H](C(=O)OCC(=O)Nc2ccc3c(c2)OCO3)C(C)C)c1	-1%[46.1 µM]	-6%	/	2%	10%	/	/	?
CC(NC(=O)CSc1nc2ccccc2n1CCC#N)c1ccc(F)cc1 (stereo not given)	2%	3%	-1%	-1%	0%	-1%	4.4%	1%
Cc1cc(-n2c(SCC(=O)Nc3ccc(Br)cc3)nc3n[nH]c(C)c3c2=N)ccc1Cl	/	2%	/	-23%	10%	-2%	/	/

Quoted from above for reference:
SMILES	Lassa entry inh	SARS PLpro yeast	Cruzain noTriton	StopGo reporter	RE007 growth inh	NS1 function inh	Cruzain Triton	Marburg entry inh
CCNc1nc(NC(C)C)nc(Oc2ccc(OCc3ccccc3)nn2)n1	-23%	2%	5%	-11%	?	4%	-4.0%	-22%[46.1 µM]
O=C(Nc1c2c(nn1-c1ccc(Cl)cc1)CS(=O)(=O)C2)c1cccc(Cl)c1	?	/	-25%	?	/	/	1.7%	/

Back to the main list with the 4 entries that preceded the break.
SMILES	Lassa entry inh	SARS PLpro yeast	Cruzain noTriton	StopGo reporter	RE007 growth inh	NS1 function inh	Cruzain Triton	Marburg entry inh
Cc1ccc(CNC(=O)c2ccc(N3CCC4(CC3)CC(c3ccccc3)=NO4)c(N)c2)cc1	/	-3%	/	-10%	2%	20%	/	/
COc1cc(OC)cc(C(=O)N[C@H](C(=O)OCC(=O)Nc2ccc3c(c2)OCO3)C(C)C)c1	-1%[46.1 µM]	-6%	/	2%	10%	/	/	?
CC(NC(=O)CSc1nc2ccccc2n1CCC#N)c1ccc(F)cc1 (stereo not given)	2%	3%	-1%	-1%	0%	-1%	4.4%	1%
Cc1cc(-n2c(SCC(=O)Nc3ccc(Br)cc3)nc3n[nH]c(C)c3c2=N)ccc1Cl	/	2%	/	-23%	10%	-2%	/	/
CN1c2ccccc2C(=O)NC1c1ccc(Cl)cc1 (stereo not given)	6%	-3%	/	-15%	3%	/	/	5%
COc1ccc(S(=O)(=O)N2CCCc3ccccc32)cc1OC	/	1%	/	-14%	3%	-80%	/	/
Cc1ccc2nc(SCC(=O)Nc3ccc4c(c3)OCCO4)[nH]c2c1	-11%	-9%	0%	0%	11%	-6%	-8.3%	17%
COc1cc(/C=N/NC(=O)CNC(=O)/C=C/c2ccco2)cc(OC)c1OC	2%	1%	/	-11%	1%	1%	/	1%[46.1 µM]
Cc1n[nH]c(=O)c2c(NC(=O)CSc3nn(-c4ccc(F)cc4)c(=S)s3)oc(C)c12	-1%	-4%	/	-24%	2%	/	/	-1%
COc1ccccc1CCC(=O)Nc1nc2ccccc2[nH]1	?	3%	-4%	12%	-1%	-5%	-4.9%	?
Cn1c(COc2ccccc2)nnc1SCCC(=O)Nc1ccccc1	-3%	-1%	0%	0%	-5%	-7%	2.8%	13%
Cc1c(NS(=O)(=O)c2cccc(C(=O)OCC(=O)c3ccc(Cl)cc3)c2)c(=O)n(-c2ccccc2)n1C	-15%	/	/	-21%	-2%	/	/	-16%
Cc1ccc(NS(=O)(=O)c2ccc(/C=C/C(=O)O)cc2)cc1Cl	-10%	5%	/	59%[activator]	33%	15%	/	-1%[46.1 µM]
O=C(Cn1nnc2c(sc3nc4c(c(-c5ccccc5)c32)CCC4)c1=O)c1ccccc1	1%	/	25µM*	8%	-11%	6%	1.0%	9%
CC1Cc2ccccc2N1C(=O)CSc1nnnn1Cc1ccccc1 (stereo not given)	-11%	-11%	-4%	-12%	-6%	-53%	-5.8%	?
CCN(CCCNC(=O)Cn1ncc2c3ccccc3n(C)c2c1=O)Cc1ccccc1	?	/	-4%	0%	/	/	-4.6%	?
CCOC(=O)C1CCN(Cc2c(C(=O)N3CCOCC3)nc3c(C)cccn23)CC1	?	5%	/	-5%	7%	-1%	/	16%
Cc1csc(NC(=O)CCc2nc3ccccc3s2)n1	19%	-1%	-9%	14%	18%	-10%	-3.0%	?
COc1ccc2oc(=N)c(C(=O)Nc3ccccc3)cc2c1	7%	-2%	5%	-25%	5%	-11%	3.9%	?
COc1cc(Cl)c(C)cc1NC(=O)CCc1c(C)nc2c3cccnc3nn2c1C	-5%[46.1 µM]	/	-1%	0%	/	/	0.5%	-3%[46.1 µM]
COc1ccc(OC)c(N2C(=O)C(Cl)=C(N3CCCCC3)C2=O)c1	?	-9%	-13%	5%	9%	5%	1.0%	3%
Cc1cnc(C(=O)N2CCCC(N3CCN(c4ccccc4C)CC3)C2)cn1 (stereo not given)	-11%	2%	/	-9%	10%	8%	/	-1%
Cn1c(C(=O)N2CCCCCC2)cc2c(=O)n(C)c3ccccc3c21	/	-3%	-3%	17%	-12%	-57%	-0.7%	/
O=C(O)/C=C/C(=O)Nc1ccc(OC(F)(F)F)cc1	/	-2%	/	-6%	-5%	4%	/	/
Oc1ccc(/C=N/Nc2nc(N3CCCCCC3)nc(N3CCCCCC3)n2)c(O)c1	?	-1%	/	?	-9%	/	/	?
